Source: PubChem BioAssay (Johns Hopkins Ion Channel Center)
KCNQ2 block: KCNQ2 potassium channel inhibitors, primary screen, cell-based, CHO-K1, FluxOR thallium flux, B-score (AID 2156) | 20 min; active compounds read low; only compounds with negative scores are shown here; some inactives read as strong as hits | 310,000 tested, 1.1% active | B-score at 10 µM | O88943;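 active = fluorescence ratio B-score at most minus 3 library SDs, with starting brightness B-score within 2 library SDs, cut at about -5.5 in these data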
Target sequence (O88943 whole entry, looked up): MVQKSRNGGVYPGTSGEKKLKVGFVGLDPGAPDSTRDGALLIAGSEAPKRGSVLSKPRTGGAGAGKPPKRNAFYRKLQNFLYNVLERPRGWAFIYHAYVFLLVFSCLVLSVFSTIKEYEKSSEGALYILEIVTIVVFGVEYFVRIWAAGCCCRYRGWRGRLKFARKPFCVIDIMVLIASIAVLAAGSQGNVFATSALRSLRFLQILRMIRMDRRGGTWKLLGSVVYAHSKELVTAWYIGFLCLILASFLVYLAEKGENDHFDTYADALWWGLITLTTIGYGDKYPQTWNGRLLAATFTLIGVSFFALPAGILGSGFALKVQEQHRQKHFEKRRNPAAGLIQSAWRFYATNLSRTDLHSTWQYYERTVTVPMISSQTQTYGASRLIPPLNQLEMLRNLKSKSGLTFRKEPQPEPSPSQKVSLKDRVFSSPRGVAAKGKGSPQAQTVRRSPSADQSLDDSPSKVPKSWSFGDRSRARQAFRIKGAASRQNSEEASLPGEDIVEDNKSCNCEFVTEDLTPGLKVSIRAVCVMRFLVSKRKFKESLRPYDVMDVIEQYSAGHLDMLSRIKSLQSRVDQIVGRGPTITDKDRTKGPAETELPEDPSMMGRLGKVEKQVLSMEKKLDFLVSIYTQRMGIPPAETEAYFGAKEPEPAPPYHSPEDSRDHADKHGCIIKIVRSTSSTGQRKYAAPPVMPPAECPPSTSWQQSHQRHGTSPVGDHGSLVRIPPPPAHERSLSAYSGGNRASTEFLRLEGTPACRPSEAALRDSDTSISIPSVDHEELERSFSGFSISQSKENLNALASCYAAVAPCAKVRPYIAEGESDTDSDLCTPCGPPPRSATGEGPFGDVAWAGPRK
KCNQ2 block baseline: further read-out of KCNQ2 block, marked with its call; B-score; measured here: initial fluorescence intensity artifact check;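 brightness before thallium and not channel activity; 0 = typical well and far values either way flag optical interference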
* marks the source's active call; other numbers are inactive results; i = inactive. Not all compounds are listed, so the mix of outcomes need not match the whole.

cpd | SMILES | KCNQ2 block | KCNQ2 block baseline
1 | O=C(Nc1nc(-c2ccccc2)cs1)c1cccc([N+](=O)[O-])c1C(=O)O | i | -0.67
2 | Cc1ccccc1NC(=O)c1c(C)nc(SCC(=O)OCc2ccccc2)c(C#N)c1-c1ccc(F)cc1 | -7.05* | -0.1*
3 | CCCn1c2ccc(F)cc2c2nnc(SCCN3CCOCC3)nc21 | i | 0.14
4 | CCc1nc(SCC(=O)Nc2ccc3c(c2)OCCO3)c2oc3ccccc3c2n1 | i | 0.04
5 | CC1CCc2c(sc(NC(=O)c3nc4ncccn4n3)c2C#N)C1 (stereo unspecified) | i | 1.21
6 | COC(=O)C1CN(C(=O)c2ccc(OC(F)F)cc2)c2ccccc2O1 (stereo unspecified) | i | -1.35
7 | CCOCC(=O)Nc1cc([N+](=O)[O-])ccc1OC | i | 0.34
8 | COc1cccc(C(=O)Nc2ccc3c(c2)n(C)c(=O)n3C)c1 | i | 0.73
9 | O=C(CCN1C(=O)C2CC=CCC2C1=O)Nc1ccccc1Cl (stereo unspecified) | i | 1.66
10 | Cc1cccc(CN2C(=O)/C(=C\c3ccc(C(=O)NCCCN4CCN(C)CC4)cc3)Oc3ccccc32)c1 | i | 2.88
11 | O=c1oc2ccccc2c2c1ncn2CCN1CCOCC1 | i | -0.96
12 | CS(=O)(=O)N(CC(=O)Nc1cccc(Cl)c1)c1ccccc1Cl | i | 0.86
13 | COc1ccc(/C=C/C(=O)OCC(=O)Nc2c(C)cccc2C)cc1 | i | 0.03
14 | Cc1ccc(CN(CC(=O)NCc2ccc3c(c2)OCO3)C(=O)c2csnn2)cc1 | i | 0.68
15 | Cn1nc(C(=O)OCC(=O)Nc2sccc2C(N)=O)c2ccccc2c1=O | i | 0.74
16 | COc1ccc(C2N(c3ccccc3)C(=O)C2(F)F)cc1OC (stereo unspecified) | i | 0.67

Brought forward from above: 6 entries; new compounds follow.
cpd | SMILES | KCNQ2 block | KCNQ2 block baseline
11 | O=c1oc2ccccc2c2c1ncn2CCN1CCOCC1 | i | -0.96
12 | CS(=O)(=O)N(CC(=O)Nc1cccc(Cl)c1)c1ccccc1Cl | i | 0.86
13 | COc1ccc(/C=C/C(=O)OCC(=O)Nc2c(C)cccc2C)cc1 | i | 0.03
14 | Cc1ccc(CN(CC(=O)NCc2ccc3c(c2)OCO3)C(=O)c2csnn2)cc1 | i | 0.68
15 | Cn1nc(C(=O)OCC(=O)Nc2sccc2C(N)=O)c2ccccc2c1=O | i | 0.74
16 | COc1ccc(C2N(c3ccccc3)C(=O)C2(F)F)cc1OC (stereo unspecified) | i | 0.67
17 | C=CCOc1c(OC)cc(Cl)cc1C1NC(=O)NC(C)=C1C(C)=O (stereo unspecified) | i | 0.64
18 | Cc1sc(NC(=O)c2sc3nc4c(C)cccc4cc3c2N)c(C#N)c1C | i | 0.84
19 | COc1ccccc1N=C1SC(C)CN1C(=O)C1CCC1 (stereo unspecified) | i | 0.15
20 | O=C(Nc1ccc(F)cc1F)c1cc(-c2ccco2)on1 | i | -1.73
21 | CC(=O)c1cccc(S(=O)(=O)N2CCC(C(=O)O)(c3ccccc3)CC2)c1 | i | 0.41
22 | COc1cc(CNc2ccccc2SC)ccc1O | i | -0.45
23 | O=c1c2c3c(sc2nc(N2CCNCC2)n1CCc1ccccc1)CCCCC3 | i | -0.47
24 | COc1ccc(Cn2nnc3c(=O)[nH]c(C4CCN(S(=O)(=O)c5ccc(C)cc5)CC4)nc32)cc1 | i | 1.01
25 | Cc1noc(C)c1CSCC(=O)NC1=NCCS1 | i | 0.54
26 | Cc1ccc(N2C(=O)c3ccccc3C2=O)cc1Cl | i | -0.02
27 | CN=C(Nc1cc(C)nn1-c1ccccc1)c1ccccc1F | i | -0.43
28 | Cc1ccccc1-n1nc2c(c1NC(=O)c1ccc(Br)o1)CSC2 | -5.88* | -0.83*
29 | CCCC(c1nnnn1CC1CCCO1)N1CCN(c2ccccc2)CC1 (stereo unspecified) | i | 0.55
30 | Cc1oc(-c2ccccc2F)nc1CS(=O)CC(=O)NCc1ccccn1 (stereo unspecified) | i | 1.17
31 | Cc1cccc(N2CCN(C(=O)c3ccc(CS(=O)Cc4cccc(Cl)c4)o3)CC2)c1C (stereo unspecified) | i | -0.55
32 | C(=N\n1cnnc1)/c1cn(Cc2ccccc2)c2ccccc12 | i | 0.1
33 | O=C1CC2(CCCC2)CC(=O)N1c1ccccc1 | i | -0.96
34 | NC(=O)N/N=C/c1sc(N2CCCCC2)nc1-c1cccs1 | i | 2.38
35 | CCn1c(/C=C/c2ccccc2)nc2ccccc21 | i | 0.76
36 | CCC(C)NC(=O)N1c2ccccc2Sc2ccccc21 (stereo unspecified) | i | -0.88
37 | CCN(CC)c1ccc(/C=C(/C#N)C(=O)NCc2ccccc2)o1 | i | 3.61
38 | COc1ccc(NC(=O)CC2C(=O)N(c3ccc(F)cc3)C(=S)N2NC(=O)c2ccccc2)cc1 (stereo unspecified) | i | -2.96
39 | COc1ncnc2c1NC(=O)CS2 | i | 0.06
40 | CCOC(=O)C1CCN(c2nc3ccccc3nc2C(C#N)C(=O)OC(C)C)CC1 (stereo unspecified) | i | -0.06
41 | CC1CN(Cc2ccccc2)c2nc3c(c(=O)n(CC(N)=O)c(=O)n3C)n2C1 (stereo unspecified) | i | -0.45
42 | Cc1cc(CN(C)C)c(O)c(C2(C)CCCCC2)c1 | -9.08* | -1.57*
43 | C=CCN=C1SC(C)(C)C(=O)N1S(=O)(=O)c1ccc(C)cc1 | i | -0.82
44 | COc1cc(C(=O)OCc2ccc([N+](=O)[O-])cc2)cc(OC)c1OC | i | -1.18
45 | COc1cccc(OC)c1C(=O)Nn1c(C2CCC2)nc2ccccc2c1=O | i | -0.95
46 | O=C(/C=C/c1cccc(Cl)c1)c1nc2ccccc2[nH]1 | i | 0.15
47 | CCCCCCSC1=C(C#N)C(c2ccccc2)CC(=O)N1 (stereo unspecified) | i | 1.62
48 | CCc1ccc(CN(C)C(=O)CCc2nnc(CCc3cccc(OC)c3)o2)nc1 | i | -1.81

Single records, as listed above.
Entry for C=CCN=C1SC(C)(C)C(=O)N1S(=O)(=O)c1ccc(C)cc1 → KCNQ2 block = i; KCNQ2 block baseline = -0.82
Entry for COc1cccc(OC)c1C(=O)Nn1c(C2CCC2)nc2ccccc2c1=O → KCNQ2 block = i; KCNQ2 block baseline = -0.95

Remaining list, next part
cpd | SMILES | KCNQ2 block | KCNQ2 block baseline
49 | Cc1cccc(N2C(=O)C3C4C=CC(C4)C3C2=O)c1 (stereo unspecified) | i | 0.24
50 | CC(C)CNC(=O)N[C@@H](CC(C)C)C(=O)O | i | 1.07
51 | Cc1ccc(S(=O)(=O)N2CCC(NC(=O)C3CCCCC3)CC2)cc1 | i | 1.7
52 | CCCC(=O)NC(Nc1cccc(C(F)(F)F)c1)C(Cl)(Cl)Cl (stereo unspecified) | i | -1.01
53 | Clc1ccc(CNCC2CCCO2)c(Cl)c1 (stereo unspecified) | i | -0.95
54 | c1ccc(NCc2cccc3ccccc23)nc1 | i | 1.34
55 | Cc1cccc(N(C(=O)c2snc(C(N)=O)c2N)C(C(=O)NCC2CCCO2)c2ccc(N(C)C)cc2)c1 (stereo unspecified) | i | 2.49
56 | O=C(/C=C/c1cn(-c2ccccc2)nc1-c1cccnc1)N1CCCCC1 | i | 4.85
57 | Cc1nnc(SCSc2nnc(C)s2)s1 | i | 3.66
58 | O=C(c1ccc(C(F)(F)F)cc1)N1CCC(=O)N(C(COCc2ccc(Cl)cc2)Cc2ccccc2)CC1 (stereo unspecified) | i | -0.5
59 | C=CCN1CN(Cc2ccco2)CNC1=S | i | 0.99
60 | CCN1C(=O)C(O)(CC(=O)c2ccc3c(c2)OCCO3)c2ccccc21 (stereo unspecified) | i | 0.62
61 | CCOC(=O)c1oc2ccc3c(c2c1C)C(=O)CC1(CCN(C(=O)OCC)CC1)O3 | i | -0.51
62 | CCC(=O)/C(=C(/O)c1ccccc1)c1nc2ccccc2[nH]1 | i | 0.39
63 | Cc1cc(C(=O)CSc2nc3ccc(Cl)cc3[nH]2)c(C)n1CC1CCCO1 (stereo unspecified) | i | -1.03
64 | N#CC1(NC(=O)COC(=O)Cc2n[nH]c(=O)c3ccccc23)CCCCC1 | i | -1.65

Values by screen from the list.
KCNQ2 block baseline, nos. 58 to 62 → -0.5, 0.99, 0.62, -0.51, 0.39
KCNQ2 block, nos. 58 to 62 → i, i, i, i, i

Following part:
cpd | SMILES | KCNQ2 block | KCNQ2 block baseline
65 | C[C@@H](N)C(=O)NC[C@H]1CC[C@H](C(=O)N[C@@H](Cc2ccccc2)C(=O)O)CC1 | i | 0.43
66 | CCc1nnc(NC(=O)CCC(=O)NCc2ccccc2OC)s1 | i | 1.04
67 | O=C(Nc1ccc(Cl)cc1)/C(=C1\CCCN1)[N+](=O)[O-] | i | 1.36
68 | COc1cc2cc(C(=O)N3CCOCC3)cc(-c3ccc(C)cc3)c2cc1OC | i | 0.22
69 | COc1ccc(CN(CC2CCC(C(=O)O)CC2)C(=S)Nc2ccccc2OC)cc1 (stereo unspecified) | i | -0.88
70 | O=C(OCC(=O)N1CCc2ccccc21)c1cccc(S(=O)(=O)N2CCCc3ccccc32)c1 | i | -1.96
71 | CCOc1cc(C(=S)N2CCOCC2)ccc1OC(=O)c1cc(OC)c(OC)c(OC)c1 | i | 0.36
72 | COc1cc(OC)cc(-c2nnc(NC(=O)CCS(=O)(=O)c3ccc(F)cc3)o2)c1 | i | -0.33
73 | C=CCN(c1ccccc1)S(=O)(=O)c1cccc(C(=O)NCC(c2cccs2)N2CCOCC2)c1 (stereo unspecified) | i | 2.78
74 | Cc1ccc(C)c(Cn2cnc3c(nnn3-c3ccc(F)cc3)c2=O)c1 | i | 0.74
75 | CC1(C)CC(=O)c2sc(NC(=O)c3cccs3)nc2C1 | i | 1.2
76 | CN(CCOc1ccc(Br)cc1)CC(=O)Nc1cccc(S(=O)(=O)NC2=NCCC2)c1 | i | 2.61
77 | CCCC(=O)N1CCCC(c2nc(-c3cccs3)no2)C1 (stereo unspecified) | i | 1.31
78 | Cc1ccc(CNC(=O)c2cc(Cl)cc(Cl)c2)n1C | i | 0.58
79 | COc1ccc(S(=O)(=O)Nc2ccc(Cc3ccncc3)cc2)cc1OC | i | 0.02
80 | CCOc1ccc(N2C(=O)CC(N3CCN(C(=O)CN4CCCC4)CC3)C2=O)cc1 (stereo unspecified) | i | -1.45
81 | CCCCn1c(N)c(N(CC)C(=O)CSCc2ccc(C)cc2)c(=O)[nH]c1=O | i | 0.23
82 | COc1ccc(C(=O)/C=C/c2ccc3c(c2)OCCO3)cc1 | i | 2.65
83 | CC1CCN(CCCNC(=O)c2coc3nc4ccccc4nc23)CC1 | i | -0.4
84 | O=C(Nc1nc(-c2ccncc2)cs1)C1COc2ccccc2O1 (stereo unspecified) | i | 1.24
85 | O=C(O)CCn1c(=O)[nH]c(=O)n(CCC(=O)O)c1=O | i | -3.28
86 | O=C(COC(=O)c1cc[n+]([O-])cc1)Nc1ccc2c(c1)OCCO2 | i | 1.1
87 | O=C(c1ccccc1)N1N=C(c2ccco2)CC1c1cccs1 (stereo unspecified) | i | 3.02
88 | C=CCn1c(SC(C)C(=O)Nc2ccc(Cl)cn2)nnc1C1CC1 (stereo unspecified) | i | 2.71
89 | CCOC(=O)c1cnc2nc(C)nn2c1N | i | 3.49
90 | COc1ccc2[nH]c(C(=O)N/N=C/c3ccccc3OC)cc2c1 | i | 0.07
91 | Cc1c(-c2ccc(Cl)cc2)[n+](=O)c2c(n1[O-])CCCC2 | i | -0.01
92 | CCn1c(CC(=O)Nc2ccc(C)cc2)nnc1SCC(=O)Nc1nc(C)cs1 | i | 0.01
93 | CCOC(=O)CN(c1ccccn1)S(=O)(=O)c1ccccc1 | i | 0.74
94 | CC1CCC(C(C)C)C(OC(=O)C2=C3c4ccccc4S(=O)(=O)N3CC2)C1 (stereo unspecified) | -6.12* | 0.48*
95 | CCCn1c(C)cc(/C=C(\C#N)C(=O)OCC(=O)N(C)c2c(N)n(Cc3ccccc3)c(=O)[nH]c2=O)c1C | i | 0.09
96 | Cc1nn2c(NCc3ccccn3)cc(C(C)C)nc2c1-c1ccccc1 | i | -1.99
97 | COc1ccc(S(=O)(=O)N2CCCN(CC(=O)Nc3ccccc3F)CC2)cc1 | i | -1.74
98 | O=C(CCn1cnc2ccccc2c1=O)Nc1ccc(S(=O)(=O)N2CCCCC2)cc1 | i | 1.05
99 | COc1ccc(C(=S)N2CCC(C(N)=O)CC2)cc1Br | i | 2.42
100 | COc1ccccc1N1CCN(/N=C/c2c(C)nn(-c3ccccc3)c2C)CC1 | i | -0.4
101 | Cc1cc(C)nc(NC(=O)c2ccc(Cl)cc2Cl)n1 | i | 0.32
102 | COc1cccc(NC(=O)C2CCCN2C(=O)Nc2cccc(F)c2)c1 (stereo unspecified) | i | 2.04
103 | CCCCCCn1c(SCC(=O)c2ccccc2)nc2c1c(=O)[nH]c(=O)n2C | i | -0.7
104 | CCC(=O)N1CCC2(CC1)Oc1ccc(Cl)cc1C(=O)C21CC(c2ccc(Cl)cc2)=NO1 (stereo unspecified) | i | 1.7
105 | O=C(Cc1cccs1)Nc1nnc(SCC(=O)NC2CCCCC2)s1 | i | -0.83
106 | Cc1ccc(C(=O)Nc2ccc(N3CCN(C)CC3)cc2)c(Cl)c1 | i | -4.03
107 | COc1ccc(C(=O)OCC(=O)Nc2ccccc2)cc1[N+](=O)[O-] | i | 0.25
108 | O=C(NCc1ccccc1)C(c1cccs1)N(C(=O)c1csnn1)C1CC1 (stereo unspecified) | i | 0.66
109 | Cc1ccc2c(c1)cc(CN(Cc1ccco1)S(=O)(=O)c1ccccc1)c1nnnn12 | i | -0.79
110 | Cc1ccc(NC(=O)CCC(=O)N2CCOc3ccccc32)c(Cl)c1 | i | -0.26
111 | COc1ccc(-c2nn(-c3ccccc3)cc2C(=O)NCCCn2ccnc2)cc1 | i | 3.64
112 | Cc1nc(C)c(-c2csc(NCc3ccco3)n2)s1 | i | 0.04
113 | CCc1cccc(NC(=O)c2ccc(Cn3nc(C)cc3C)o2)c1 | i | -1.04
114 | COc1ccc(C(=O)NC(=S)NNC(=O)c2ccc3ccccc3n2)cc1 | i | -0.7
115 | COc1cccc(NC(=O)COC(=O)COc2cccc3c2OC(C)(C)C3)c1 | i | 0.14
